Sa RN4220 lethal: kills Staphylococcus aureus RN4220 | S. aureus RN4220 growth, OD600, 16 h | inhibition, % (test concentration not listed) | hit rate 0.33% among 330,000 | AID 1259311;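 active = z-score of -3 or lower and OD600 up to 0.18 on both plates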;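 note: plate controls were untreated cells for no effect and reference antibiotic for full effect; stock transfer was 100 nL into about 80 µL; one replicate is shown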
Bead autofluor: counter-screen for toxin protease inhibitors: compound fluorescence; compound autofluorescence counterscreen, microsphere flow cytometry; stronger effect = higher value; fluorescence intensity (test concentration not listed); hit rate 3.1% among 360,000;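 active = at least 3 SD above the mean of all compounds, about 16000 in these data; inconclusive = too few beads counted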;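 note: 100 nL of 1 mM stock went into each well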
Sa ugtP lethal: kills S. aureus RN4220 lacking UgtP | S. aureus RN4220 ugtP deletion, OD600 growth, 16 h; some inactives read as strong as hits | growth inhibition, % (no concentration beside the values) | hit rate 0.54% among 330,000 | AID 1259309;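 active = z-score under -3 and OD600 up to 0.15 on both plates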;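 note: plate controls were untreated wells for no effect and antibiotic for full effect; wells of about 80 µL received 100 nL stock; the first replicate is given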
PrP 5UTR inh: suppresses PrP 5' UTR mRNA reporter expression; cell-based PrP 5' UTR mRNA reporter, plate reader; inhibition, % (test concentration not listed); hit rate 0.35% among 340,000; AID 488862;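 active = every replicate at 50% or more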;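 note: 0 = median of the neutral control wells; tested in H4 reporter cells; numbers are from one replicate; inactives centre near -14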
BJeLR viability: kills HRASV12-expressing BJeLR cells. BJeLR (HRASV12) viability, CellTiter-Glo ATP luminescence, 48 h; reference of the scale not given here. hit rate 0.17% among 300,000. inhibition, % (concentration not given with the values);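 active = replicate mean above 50%; inconclusive = above 50% but judged a plate artefact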;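 note: 50 nL library stock added to about 25 µL; numbers are from one replicate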
Mtb hypoxia inh: Mtb hypoxia fluorescent reporter inhibition | M. tuberculosis hypoxia-regulated fluorescent reporter, fluorescence | fluorescence inhibition, % (no concentration beside the values) | hit rate 0.1% among 300,000 | AID 1159583;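 active = 35 to 45% if threefold the growth effect, above 45% if 1.5-fold the growth effect; inactive = the rest, general growth blockers included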;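 note: wells of about 50 µL received 100 nL stock; 0% = vehicle wells and 100% = reference inhibitor wells; whole bacteria with a GFP reporter of the hypoxia response; strong numbers were not always called active; many hits fall short of the cut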
Mtb hypoxia inh growth: recorded beside Mtb hypoxia inh, whose call it bears; growth inhibition, %; measured here: M. tuberculosis growth (absorbance);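 0% = vehicle and 100% = reference antibiotic; read after six days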
* = called active by the depositor; ? = inconclusive; / = no result given.

Start of the data: the first 2 records as a preview:
SMILES	Sa RN4220 lethal	Bead autofluor	Sa ugtP lethal	PrP 5UTR inh	BJeLR viability	Mtb hypoxia inh	Mtb hypoxia inh growth
C[C@]12c3[nH]c4ccc(Cl)cc4c3CCN1C(=O)[C@@H](CC(=O)NCCCn1ccnc1)C[C@@H]2C(=O)N1CCOCC1	-1.5	3597	3	-15	/	0	7
CC1(C)CC(=O)C=C(c2ccc3ncccc3c2)C1	5.7	4043	4	-6	/	5	7

All compounds of this part, from the first entry:
SMILES	Sa RN4220 lethal	Bead autofluor	Sa ugtP lethal	PrP 5UTR inh	BJeLR viability	Mtb hypoxia inh	Mtb hypoxia inh growth
C[C@]12c3[nH]c4ccc(Cl)cc4c3CCN1C(=O)[C@@H](CC(=O)NCCCn1ccnc1)C[C@@H]2C(=O)N1CCOCC1	-1.5	3597	3	-15	/	0	7
CC1(C)CC(=O)C=C(c2ccc3ncccc3c2)C1	5.7	4043	4	-6	/	5	7
O=C(CN(Cc1cccs1)C(=O)CNC(=O)c1ccco1)NC1CCCCC1	5.6	4702	10	-18	9	/	/
COc1ccc(-c2sc(Nc3ccccc3)n[n+]2-c2ccccc2)cc1Br	-0.7	3079	-2	2	/	7	13
CC1CCCN(CCCN2C(=O)C3C(C(=O)Nc4cccc(Cl)c4)C4C=CC3(O4)C2C(=O)NC2CCCCC2)C1 (centres undefined)	-0.1	3352	3	-14	3	6	2
ClC(Cl)(Cl)c1nc(NN=Cc2ccncc2)c2ccccc2n1	5.0	/	-7	/	/	8	7
CCC(=O)Nc1ccc(/C(C)=N\NS(=O)(=O)c2ccc(C)cc2)cc1	/	4430	/	-11	4	/	/
CCC1CCc2sc(C(=O)NCC3CCCO3)cc2C1 (centres undefined)	2.4	?	3	-44	/	/	/
COC(=O)C1C[C@@]2(Br)c3ccccc3N(S(=O)(=O)c3ccccc3)C2N1C(=O)OC (some centres undefined)	3.0	/	-3	/	/	0	-2
Cc1ccc(N2C(=O)CCC2(C(N)=O)c2ccccc2)cc1 (centres undefined)	5.1	3731	8	-26	3	-6	0
COc1cccc(C(=O)NC(C)c2cccc3ccccc23)c1OC (centres undefined)	11	5138	4	-9	-4	20	11
O=C(O)CC1=C(Nc2ccccc2)C(=O)N(c2ccccc2)C1c1ccc(F)cc1 (centres undefined)	4.3	2618	-1	-73	1	9	-4
Cc1ccc(C(=O)Nc2ccc3c4c(cccc24)CC3)cc1[N+](=O)[O-]	14	2395	-13	-18	3	3	6
COCc1cc(CN(C)C(=O)C2CCC(=O)N(Cc3cccc(OC)c3)C2)[nH]n1 (centres undefined)	3.6	4087	8	-15	1	6	-7
COc1ccc(CCNC(=O)/C=C/c2cc(OC)c(OC)c(OC)c2)cc1OC	6.0	2539	6	-2	-10	-15	2
N#C/C(=C\c1ccc(N2CCOCC2)o1)c1ccccc1	0.8	8833	-16	-267	1	1	4
CCSc1nnc(NC(=O)CSc2nc3c(c(=O)n2CC)SC(C)C3)s1 (centres undefined)	-2.1	2033	-2	-24	-1	/	/
Cc1cccc(OCCCSc2nc3ccccc3[nH]2)c1	0.0	3861	10	2	-1	2	6
Cc1c(OCc2ccccc2)c(=O)ccn1Cc1ccccc1	-11	2779	-3	-50	2	/	/
Cc1ccc(Nc2nnc(SCC(=O)NCC3CCCO3)s2)cc1 (centres undefined)	2.8	5733	0	-19	/	6	1
CCOC(=O)C1=CN(Cc2cccc(F)c2)S(=O)(=O)N(CC)C1c1ccc2ccccc2c1 (centres undefined)	6.6	2948	14	-1	/	6	2
c1ccc(-c2ccc(SCc3cccnc3)nn2)nc1	1.2	3222	3	-28	5	-2	-2
COc1cc(NS(=O)(=O)c2ccc(NC(=O)c3ccco3)cc2)nc(OC)n1	-0.4	17434*	10	-24	-2	5	2
Cc1[nH]n(-c2ccccc2)c(=O)c1Sc1ccc(Cl)cc1	26	4322	8	-7	-8	0	12
COc1ccc(C(=O)Nc2nc(-c3ccc(OC)cc3)c(-c3ccc([N+](=O)[O-])cc3)s2)cc1	-0.2	2900	-13	-2	8	5	0
COC(=O)c1ccc(Cl)c(NC(C)=O)c1	3.7	21958*	10	-12	2	10	2
CCn1c(NCc2ccccn2)nc2c1c(=O)n(C)c(=O)n2C	-5.7	16824*	-4	3	1	-5	-6
COc1ccc(C(=O)CSc2n[nH]c(-c3ccncc3)n2)cc1[N+](=O)[O-]	3.7	1934	4	6	7	3	2
Cc1ccc2c(CN3CCOCC3)cc(=O)oc2c1C	2.2	3751	-1	-9	2	-1	-1
O=C(NC1CCCCC1)N(Cc1ccccc1)Cc1ccco1	0.1	2331	4	0	4	7	4
O=C(NCC(c1cccs1)N1CCOCC1)c1cc2ccccc2o1 (centres undefined)	4.4	5418	2	-15	-3	9	14
CCCCN(CCCC)S(=O)(=O)c1ccc2oc(C(=O)N3CCOCC3)c(C)c2c1	6.2	24116*	18	-10	8	5	13
COc1cccc(C(C(=O)NC(C)(C)C)N(CC(C)C)C(=O)CCC(=O)Nc2cc(C)on2)c1OC (centres undefined)	1.6	5883	2	-35	9	2	1
Cc1ccn2nc(C(=O)OCC(=O)N(CC(C)C)C3CCS(=O)(=O)C3)nc2n1 (centres undefined)	2.3	8731	3	-26	/	3	-12
CCOC(=O)c1cc2c(ccn2-c2ccc(F)cc2)n1CC(=O)N(CC)CC	-1.2	5234	7	-20	-1	9	7
O=C(Nc1ccc2c(c1)OCCO2)c1cccc2nc3ccccc3nc12	-4.2	3290	-11	23	-7	/	/
CCN(C(=O)COC(=O)c1nc2nc(C)cc(C)n2n1)C1CCCCC1	1.1	/	0	-16	-4	8	2
CC(C)[C@H](NC(=O)C1CCN(C(=O)[C@@H]2CCCN2)CC1)C(=O)NCc1ccc(F)cc1	7.0	4960	-7	-17	-2	/	/
CCNc1nnc(CCn2nc(C)c(Br)c2C)s1	5.4	3451	17	2	2	6	-14
COc1ccc(Br)cc1CNC(=O)Cn1nc(C)n2cccc2c1=O	0.2	5252	-2	9	-8	-6	-3
Nc1ccc2nc(N)sc2c1	5.7	3527	6	-23	/	21	9
COc1cc(OC)cc(C(=O)NCC(C)NC(=O)c2cc(OC)cc(OC)c2)c1 (centres undefined)	5.7	4306	15	-4	9	2	1
COc1ccc(OC)c2sc(N(CCN(C)C)C(=O)c3cc(Cl)sc3Cl)nc12	/	4031	/	-11	3	/	/
Cc1ccc(Cn2nnc3c(=O)[nH]c(C4CCCN(C(=O)Nc5ccc(F)cc5)C4)nc32)cc1 (centres undefined)	2.4	11035	9	-26	-10	1	5
Cc1cccc(N=C2SC(C)CN2C(=O)CN2C(=O)NC3(CCCC3)C2=O)c1 (centres undefined)	2.7	4944	8	-22	9	5	2
CCN1C(=O)c2ccccc2S(=O)c2ccc(C(=O)N3CCOCC3)cc21 (centres undefined)	1.8	5316	6	-17	4	11	4
Cc1c(C)c2c(OCC(=O)N[C@@H](C(=O)O)c3ccccc3)cc3c(c2oc1=O)CCC(C)(C)O3	1.6	6409	-4	-11	-1	/	/
COc1cc(OC)c2c(-c3ccccc3)cc(=O)oc2c1C(CCN1CCCC(C)C1)c1ccc(N(C)C)cc1 (centres undefined)	-5.0	4277	-42	-9	10	/	/
Cn1c(CSc2nc3ccccc3s2)nc2ccccc21	0.6	22150*	26	-35	-3	9	5
Nc1nc(N2C(=O)C3CC=CCC3C2=O)nn1-c1ccccc1 (centres undefined)	1.9	8931	-4	-14	-10	2	7
O=[N+]([O-])c1cccc(C([O-])=C(C(=S)Nc2cccc3ccccc23)[n+]2ccccc2)c1	2.4	2877	12	14	/	2	2
Cc1ccc(NC(=O)C(=O)NCCCN2CCCC2=O)c(C)c1	-3.3	6580	-4	-39	-2	-5	-6
Cc1ccccc1-n1c(C)nnc1SCC(=O)NC1CCCc2ccccc21 (centres undefined)	2.4	2506	-4	-16	9	-7	9
CC(C)NC(=O)C(Cc1ccccc1)N1C(=O)c2ccccc2C1=O (centres undefined)	4.2	4650	4	-3	8	-2	2
O=C(COC(=O)c1cnccn1)c1ccc2ccccc2c1	-7.4	3237	-4	6	1	7	-1
COc1ccc(N(CC(=O)NCc2ccc(C)cc2)S(=O)(=O)c2ccccc2[N+](=O)[O-])c(OC)c1	3.2	4934	-6	-17	4	4	0
Cc1nc(SCC(=O)N2c3ccccc3NC(=O)CC2C)c2c(C)c(C)sc2n1 (centres undefined)	-1.1	6114	3	1	/	3	0
CCOc1ccc(NS(=O)(=O)c2ccc(C(=O)N(C)CC(=O)Nc3ccccc3Br)cc2)cc1	0.7	3900	6	-1	/	2	11
C/C(=N/NC(=O)c1ccoc1C)c1ccc(NC(=O)c2ccncc2)cc1	/	7975	/	-15	8	/	/
O=S(=O)(c1ccc(Br)s1)N1CCC(Cc2ccccc2)CC1	2.4	23471*	15	-15	-16	12	-6

6 neighbouring entries out of the list so far, quoted:
SMILES	Sa RN4220 lethal	Bead autofluor	Sa ugtP lethal	PrP 5UTR inh	BJeLR viability	Mtb hypoxia inh	Mtb hypoxia inh growth
Cc1c(C)c2c(OCC(=O)N[C@@H](C(=O)O)c3ccccc3)cc3c(c2oc1=O)CCC(C)(C)O3	1.6	6409	-4	-11	-1	/	/
COc1cc(OC)c2c(-c3ccccc3)cc(=O)oc2c1C(CCN1CCCC(C)C1)c1ccc(N(C)C)cc1 (centres undefined)	-5.0	4277	-42	-9	10	/	/
Cn1c(CSc2nc3ccccc3s2)nc2ccccc21	0.6	22150*	26	-35	-3	9	5
Nc1nc(N2C(=O)C3CC=CCC3C2=O)nn1-c1ccccc1 (centres undefined)	1.9	8931	-4	-14	-10	2	7
O=[N+]([O-])c1cccc(C([O-])=C(C(=S)Nc2cccc3ccccc23)[n+]2ccccc2)c1	2.4	2877	12	14	/	2	2
Cc1ccc(NC(=O)C(=O)NCCCN2CCCC2=O)c(C)c1	-3.3	6580	-4	-39	-2	-5	-6

Remaining list, next part:
SMILES	Sa RN4220 lethal	Bead autofluor	Sa ugtP lethal	PrP 5UTR inh	BJeLR viability	Mtb hypoxia inh	Mtb hypoxia inh growth
NC(=O)C1CCN(Cc2nc3cc(C(F)(F)F)ccc3c(=O)[nH]2)CC1	3.2	3289	-8	-13	-6	6	5
CC(C)(C)NC(=O)c1cccc(NC(=O)c2ccco2)c1	-3.2	2175	5	-26	-13	/	/
COc1ccc(CNC(=O)c2c(-c3c(F)cccc3Cl)noc2C)cc1	-3.7	3831	2	-8	9	12	7
COc1ccc(NC(=O)CCS(=O)(=O)c2ccc(Br)s2)cc1	0.0	3277	6	-9	-7	15	-1
O=C(C1=C(O)C(=O)N(Cc2ccccc2)C1c1ccncc1)c1ccco1 (centres undefined)	2.7	4854	1	-5	-5	12	1
O=C(NC1CCCC1)C1c2ccccc2C(=O)N1C1CCCCC1 (centres undefined)	1.2	19915*	2	-21	2	3	8
CCn1c(O)c(C=NCc2ccccc2)c(=O)[nH]c1=S	3.1	1908	3	-9	3	1	8
CC(=O)[C@@]1(O)CCC2C3C=CC4=CC(=O)CC[C@]4(C)C3CC[C@@]21C (some centres undefined)	6.1	6127	6	-10	/	-2	0
c1ccc(C2=Nn3c(nnc3-c3cccs3)SC2)cc1	6.9	4544	-4	-53	-7	-6	-5
CCCCCn1c(=O)c(C(=O)Nc2ccccc2C)c(O)c2ccccc21	-0.9	3016	30	-34	-2	10	0
CC(=O)N1CCN(S(=O)(=O)c2ccc(C)cc2)C1C(C)C (centres undefined)	0.5	8687	-6	-42	-2	17	4
OC(CNCCNc1ncccc1C(F)(F)F)Cn1ccc2ccccc21 (centres undefined)	0.3	3992	-5	0	-12	6	-1
CC(C)CCN(C)C1CCN(C(=O)Nc2c(F)cccc2F)CC1	4.0	5173	7	-12	-12	12	6
CC(=O)NCc1ccc(S(=O)(=O)NN=Cc2ccc(N(C)C)cc2)cc1	0.3	/	9	/	/	7	9
Cn1c(=O)c2cc(S(=O)(=O)NC(Cc3ccccc3)C(=O)NCc3ccco3)ccc2n(C)c1=O (centres undefined)	1.6	5559	-18	7	6	-6	-2
O=C(COc1ccc2ccc(=O)oc2c1)N1CC[C@@]2(O)CCCC[C@H]2C1	6.4	5485	-3	-25	5	/	/
Cc1ccccc1C(=O)NNC(=O)C(C)N1C(=O)c2ccccc2C1=O (centres undefined)	6.9	8241	5	-19	-3	14	3
CCCc1[nH]nc2c1C(c1ccc(OC)c(CSC3=NCCS3)c1)C(C#N)=C(N)O2 (centres undefined)	2.2	4749	-12	-15	-3	2	-3
O=[N+]([O-])c1ccc(-c2nc(Nc3cccc(O)c3)c3ccccc3n2)cc1	85*	4006	83*	/	-2	11	4
COc1ccc(-c2cc(C(F)F)n3ncc(C(=O)N4CCc5ccccc5C4)c3n2)cc1	-0.1	2221	-12	-20	-8	0	10

Source: PubChem BioAssay (several laboratories)
